# Screening data: PubChem, SRMLSC
# H5N1 antiviral: MDCK cell protection from H5N1 avian flu | cytopathic effect, luminescence, 72 h; stronger effect = higher value; no value below 0 was filed and about half of the inactive calls have no number; reference of the scale not given here | inhibition, % at 50 µM | 96,000 tested, 0.07% active | AID 740, 2007; in the data active means inhibition above about 25%
# * hit, by the source's call; i = inactive. Not all compounds are listed; count on the stated rates, not on these rows.
SMILES,H5N1 antiviral
COCCn1c(SCc2nc3cc(OC)c(OC)cc3c(=O)[nH]2)nnc1-c1ccncc1,0.8
Cc1cc(C)cc(-n2c(C)cc(/C=N/NC(=O)CN(c3c(C)cccc3C)S(C)(=O)=O)c2C)c1,i
CCCOc1ccc(NC(=O)C2CCCNC2=O)cc1 (stereo unspecified),i
Cc1cc(C)c2c3c(sc2n1)C(=O)N(C)CC(=O)N3,0.1
Cc1ccc(C(=O)COC(=O)CNC(=O)c2ccco2)cc1,0.2
COc1ccc(/C=C(\C#N)C(=O)N2CCOCC2)cc1Br,i
Cc1cc(C)nc(NC2=NCC(=O)N2c2ccc3c(c2)OCCO3)n1,0.2
COc1ccc(-n2cnnc2SCC(=O)Nc2ccc(N3CCOCC3)cc2)cc1,i
Cc1ccc(Nc2cnn(C34CC5CC(CC(CC(=O)O)(C5)C3)C4)c(=O)c2Cl)cc1,0.9
CC12CCC(C(=O)N3CCCCCC3)(OC1=O)C2(C)C (stereo unspecified),i
COc1cccc2c(=O)c(C(=O)NCc3cccs3)c[nH]c12,0.3
O=C(NCCCN1CCN(Cc2ccccc2)CC1)C1CCN(S(=O)(=O)N2CCCC2)CC1,0.7
O=C(CSc1nnc(-c2ccc(O)cc2)n1Cc1ccco1)N1CCc2ccccc2C1,0.6
CC(C)NC(=O)c1ccc2c(=O)n(Cc3ccco3)c(=S)[nH]c2c1,0.0
Cc1nc2c(C(=O)NCCC(C)C)c[nH]n2c(=O)c1Cc1ccccc1F,1.0
Cc1ccc(C(=O)NC(=S)Nc2ccc(S(=O)(=O)N(C)c3ccccc3)cc2)cc1,0.8
O=C(NCc1ccccn1)c1c(O)c2cccc3c2n(c1=O)CC3,1.8
O=c1c2sc3nc(N4CCOCC4)c4c(c3c2nnn1Cc1ccccc1)CCCC4,i
COc1ccc(-c2nnc(SCC#CCO)o2)cc1OC,0.2
COc1ccc(C)cc1S(=O)(=O)N(CC(=O)N1CCOCC1)Cc1ccccc1,1.2
CCOC(=O)CSc1nnc(CNC(=O)c2ccc(OC)cc2OC)n1C,i
CN(C1CCCCC1)S(=O)(=O)c1ccccc1,1.3
CCc1nc(SCC(=O)c2ccc(Cl)s2)c2oc3ccccc3c2n1,i
CCC(Oc1ccc2ccccc2c1)C(=O)O (stereo unspecified),0.1
c1cnc(N2CCSCC2)nc1,i
N=c1ncn(CC(O)CN2CCOCC2)c2nc(N3CCOCC3)[nH]c12 (stereo unspecified),1.8
COc1ccc(CNC(=O)c2ccc3nccnc3c2)cc1,i
Cc1cccc(N(CC(=O)N/N=C/c2cc([N+](=O)[O-])ccc2Cl)S(C)(=O)=O)c1C,2.0
NC(=O)C1(N2CCCCC2)CCN(C2CC(=O)N(Cc3ccc(N4CCCC4=O)cc3)C2=O)CC1 (stereo unspecified),0.9
CCc1c(C(=O)Nc2cc(C)cc(C)c2)[nH]c(C)c1C(C)=O,i
c1ccc(Cc2nn[nH]n2)cc1,i
COC(=O)c1ccc(CSc2nc(C)nc3c2c(=O)n(C)c(=O)n3C)o1,2.9
COc1cc(NC(=O)Cc2nn(C)c(=O)c3ccccc23)cc(OC)c1,1.5
COc1cccc(CNC(=O)C2CCN(C(=O)N(C)C)CC2)c1,i
CCOC(=S)N/C(=N\S(=O)(=O)c1ccc(C)cc1)c1ccccc1,0.8
O=C(Cn1cc2c(n1)CCCCC2)N1CCCCC1,0.3
COc1ccc(-c2[nH]c(-c3ccc(F)cc3)nc2SCC(=O)NCc2ccco2)cc1OC,i
c1cncc(-c2nnc3sc(-c4ccco4)nn23)c1,0.9
O=C(O)c1ccc(C2SCC(=O)N2Cc2ccccc2)cc1 (stereo unspecified),i
COc1ccc(C(=O)Nc2ccccc2C(=O)N/N=C/c2ccc(O)c(OC)c2)cc1,i
CC(C)OC(=O)C(C)Oc1ccc(C(=O)NCCc2ccccc2)cc1 (stereo unspecified),0.3
COc1cccc(-c2nc(NC(C)(C)C)c3ccccc3n2)c1O,0.1
CCOC(=O)C12CNC(=O)C(C(=O)OCC)(CNC1=O)C2,0.4
CCOC(=O)c1cnc(SCC(=O)Nc2ccc(NC(C)=O)c(OC)c2)nc1N,i
COc1ccc(Cn2nnnc2C(c2cc(OC)ccc2OC)N2CCC(C(N)=O)CC2)cc1 (stereo unspecified),1.2
Cc1ccn2c(NC(=O)c3ccccc3)c(-c3cccs3)nc2c1,i
COc1ccccc1-c1c(C)oc2c(CN3CCN(C)CC3)c(O)ccc2c1=O,0.3
COc1cccc(NC(=O)CN2CCN(S(=O)(=O)c3ccc(C(C)C)cc3)CC2)c1,3.0

# No new results follow: 6 of the compounds above.
SMILES,H5N1 antiviral
COc1ccc(-c2[nH]c(-c3ccc(F)cc3)nc2SCC(=O)NCc2ccco2)cc1OC,i
c1cncc(-c2nnc3sc(-c4ccco4)nn23)c1,0.9
O=C(O)c1ccc(C2SCC(=O)N2Cc2ccccc2)cc1 (stereo unspecified),i
COc1ccc(C(=O)Nc2ccccc2C(=O)N/N=C/c2ccc(O)c(OC)c2)cc1,i
CC(C)OC(=O)C(C)Oc1ccc(C(=O)NCCc2ccccc2)cc1 (stereo unspecified),0.3
COc1cccc(-c2nc(NC(C)(C)C)c3ccccc3n2)c1O,0.1

# Later entries
SMILES,H5N1 antiviral
COc1ccc(Cl)cc1NC(=O)Nn1cnnc1,i
Cc1nn(S(=O)(=O)c2cccs2)c(C)c1Sc1ccccc1,2.0
O=C(NC1CCCC1)C(c1cccs1)N(Cc1ccco1)C(=O)Cn1nnc(-c2cccs2)n1 (stereo unspecified),i
O=C1C=C(Nc2ccccc2O)c2ccccc2C1=O,i
CCOC(=O)c1c(COC(=O)c2ccco2)nc2ccccc2[n+]1[O-],1.0
O=C(NCC1CCCO1)c1ccccc1-c1nc(-c2ccc(F)cc2)no1 (stereo unspecified),i
CC1CCc2c(sc(NC(=O)c3ccc(-c4ccccc4[N+](=O)[O-])o3)c2C#N)C1 (stereo unspecified),0.6
O=C(CC1c2ccccc2Oc2ccccc21)N1CCN(c2ccccn2)CC1,0.2
O=C1Nc2cc3c(cc2Sc2ccccc21)OCCO3,0.3
Cc1c(OC(=O)CNC(=O)OC(C)(C)C)ccc2c3c(c(=O)oc12)CCC3,i
COc1ccc2c(c1OC)C(=O)N(c1ncn[nH]1)C2,i
COc1cccc(-c2nc(CS(=O)(=O)CC(=O)Nc3cc(C)ccc3C)c(C)o2)c1,0.1
CC1=NC(=O)C(N=Nc2cccc(C(=O)O)c2)N1c1ccccc1 (stereo unspecified),0.1
Cc1cc(/C=C(/C#N)C(=O)Nc2ccccc2)c(C)n1-c1cccnc1,i
CCOc1ccc(NC(=O)c2ccccc2CO)cc1,i
CCOc1ccc(C(=O)NCCc2ccccc2)cc1,i
Brc1ccc(OCCn2ccnc2)cc1,0.4
COc1ccc2ccccc2c1CN1CCN(C(=O)c2ccccc2)CC1,i
CCOc1ccc(NC(=O)CSc2nnnn2CC(=O)O)cc1,i
CC(C)NC(=O)CN(CCc1ccccc1)S(C)(=O)=O,0.6
Cc1c(/C(O)=C2/C(=O)C(=O)N(CCN3CCOCC3)C2c2cccs2)cnn1-c1ccccc1 (stereo unspecified),i
COc1ccc(-c2cccc(C(=O)NCC(=O)O)c2)cc1,i
Clc1cccc(CSc2nnc(-c3ccccn3)n2Cc2ccco2)c1,i
Cc1ccc(P(=O)(CC(=O)O)c2ccc(C)cc2)cc1,0.1
COc1ccccc1OCCSc1nnnn1-c1ccc(C)cc1,2.2
COc1ccc(/C=N/NC(=O)CO/N=C(\C)c2cccs2)cc1,0.3
Cc1c(NC(=O)C2CCN(S(=O)(=O)c3ccc(Cl)cc3)CC2)c(=O)n(-c2ccccc2)n1C,i
Cc1csc2c(=O)n3c(nc12)CCCCC3,15
CC(C)C1C(C#N)=C(N)Oc2n[nH]c(-c3ccccc3)c21 (stereo unspecified),i
CCn1c(SCC(N)=O)nc2sc3c(c2c1=O)CCCC3,1.9
O=P(O)(O)COc1ccccc1O,i
CCOCCn1c(CN(Cc2ccccc2)Cc2ccccc2)nc2c1c(=O)n(C)c(=O)n2C,i
COc1ccc(S(=O)(=O)N(CC(=O)N2CCN(C)CC2)c2ccccc2)cc1OC,1.6
O=C(CN1CCOCC1)N1CCc2ccccc2C(c2ccccc2)C1 (stereo unspecified),0.3
O=C(Cn1c(=O)oc2ccccc21)Nc1ccc2c(c1)OCCO2,i
O=c1c2ccccc2c2ccccc2c(=O)n1CC1CCCO1 (stereo unspecified),i
COCCNC(=O)C(C)N(c1ccc(Oc2ccccc2)cc1)S(C)(=O)=O (stereo unspecified),i
COc1ccc(C2C=C(c3ccc(Br)cc3)Nc3nc(N4C(=O)CCC4=O)nn32)cc1 (stereo unspecified),i
N#CC(c1ccc(Cl)cc1)c1ccc(Cl)nn1 (stereo unspecified),i
CCOC(=O)C1=C(C)N(C)C(C)=C(C(=O)OCC)C1c1cccnc1,0.6
CCCC(=O)Nc1ccc(NC(=O)C2CC2)cn1,1.7
COc1ccc(OC)c(C2=NO[C@@H]3C(=O)N(c4cc(Cl)ccc4OC)C(=O)[C@H]23)c1,0.1
O=C(Nc1nnc(C2CC2)s1)C1Cc2ccccc2CN1S(=O)(=O)c1cccs1 (stereo unspecified),i
CCn1cc([N+](=O)[O-])c(C(=O)Nc2ccc3c(c2)OCCO3)n1,i
C=CCSc1nnc(-c2cc3c(-c4ccccc4)nn(C)c3s2)n1C,1.6
Cc1ccc(C(=O)Nc2ccc(S(=O)(=O)N3CCc4ccccc43)cc2)o1,i
Cc1onc(-c2c(Cl)cccc2Cl)c1C(=O)NCCCN1CCOCC1,0.8
CC1CCN(c2nc3c(c(=O)n(C)c(=O)n3C)n2Cc2ccccc2)CC1,0.1
COCc1nnc(SCC(=O)Nc2cccc(Cl)c2C)n1-c1ccccc1,i
O=C(O)c1cc2cc(OCc3ccccc3)ccc2[nH]1,i
Cc1cccc(C)c1NC(=O)c1cc2c(=O)c3ccccc3oc2nc1C(F)(F)F,i
Cc1cc(C(=O)N2CCN(c3ncccn3)CC2)cs1,i
O=C(Nc1ccc(O)cc1)C1CC=CCC1 (stereo unspecified),0.1
Cc1nn(CC(=O)O)c(C)c1C,i
CC(=NCCN1CCOCC1)C1=C(O)c2ccccc2C1=O,i
CC1CCc2c(sc3ncnc(NCCCOC(C)C)c23)C1 (stereo unspecified),i
Nc1c(N=Nc2ccccc2F)c(=O)[nH]n1-c1ccccc1,i
CCOC(=O)C1CCN(S(=O)(=O)Cc2ccc(Cl)cc2)CC1,i
CCCc1cc(C(=O)Nc2nnc(C)s2)cs1,0.8
CCNC(=O)c1sc(=S)n(CC)c1N,0.7
# The list goes on:
SMILES,H5N1 antiviral
N#CCCCSc1nnnn1-c1cccc(Cl)c1,0.3
CC1CN(C(=O)c2cccc(S(=O)(=O)N3CCOCC3)c2)CC(C)O1 (stereo unspecified),i
COc1cccc(OCc2nnc(SC)n2C)c1,0.1
CC(c1ccccn1)N(CCN(C)C)C(=S)Nc1cccc(F)c1 (stereo unspecified),i
Cc1noc(C)c1S(=O)(=O)N1CCC(C(=O)NC2CCN(Cc3ccccc3)CC2)CC1,i
Cc1cc(Cl)c(S(=O)(=O)Nc2ccccn2)cc1OCC(N)=O,i
CCN(c1ccc(NC(=O)COC(=O)CCC(=O)c2ccc(F)cc2)cc1)C(C)C,0.8
COc1ccc(OC)c(S(=O)(=O)N2CCC(C(=O)NCCc3ccccc3)CC2)c1,1.0
COC(=O)c1c(-c2cccs2)csc1NC(=O)c1cccnc1,0.3
CC1=NN(c2cccc(Cl)c2)C(=O)C12CC(C)=C(C)CS2 (stereo unspecified),i
COc1ccc(C(=O)Oc2ccc(C(C)=O)cc2)c(OC)c1,0.2
c1ccc2sc(NC3=NCN(C4CCCCCC4)CN3)nc2c1,i
O=C1CC(=O)N(c2ccc3c(c2)OCO3)C(=O)N1,i
Cc1cc(Cl)ccc1NC(=O)CCCN1C(=O)CCC1=O,0.4
COc1cccc(CC(NC(C)=O)C(=O)NC2CCN(c3nc(C)cc(C)c3C#N)CC2)c1OC (stereo unspecified),i
COc1ccccc1N1CCN(C(=O)c2cc3cc(Br)ccc3oc2=O)CC1,i
COc1ccc(Cl)cc1NC(=O)COC(=O)CCNC(C)=O,i
CN1CCN(Cn2cc(/C=C/C(=O)c3ccccc3)c3ccccc32)CC1,0.6
Cc1ccc2c(c1)N(CC(=O)NCCc1c[nH]c3ccccc13)C(=O)CO2,0.4
O=C(Cn1ccc([N+](=O)[O-])n1)NCc1cccs1,i
CCNC(=S)NNC(=O)C(c1ccccc1)c1ccccc1,0.9
Cc1ccc(NC(=O)Cc2cn3ccsc3n2)nc1,1.5
O=C(CN1C(=O)c2ccccc2S1(=O)=O)NCCSCc1ccco1,0.6
CCN(CC)c1ccc(-c2nn3c(-c4ccccc4OC)nnc3s2)cc1,5.5
CC1(C)CC2CC(C)(CN2C(=O)c2cccs2)C1 (stereo unspecified),1.5
O=CNc1ccccc1Oc1ccccc1,i
Cc1ccc(S(=O)(=O)N(CC(=O)Nc2cccc(N(C)S(C)(=O)=O)c2)c2ccc(Cl)c(Cl)c2)cc1,i
O=C(CSc1ncnc2sc3c(c12)CCCC3)c1ccco1,i
OCCN1CCN(c2ncnc3nc[nH]c23)CC1,0.1
COc1ccc(S(=O)(=O)N(Cc2ccccc2)Cc2nc(-c3ccccc3)no2)cc1,i
CCC(=O)NC(=S)Nc1ccc(S(=O)(=O)NC(C)C)cc1,i
CN(C(=O)CCN1C(=O)c2ccccc2C1=O)C1CCCCC1,i
COc1ccc(/C=C/C(=O)NC(=S)NCCc2ccc(OC)c(OC)c2)cc1,2.0

# 7 of the compounds above, as tab-separated lines:
canonical_smiles	H5N1 antiviral
COc1ccc(CNC(=O)c2ccc3nccnc3c2)cc1	i
Cc1cccc(N(CC(=O)N/N=C/c2cc([N+](=O)[O-])ccc2Cl)S(C)(=O)=O)c1C	2.0
NC(=O)C1(N2CCCCC2)CCN(C2CC(=O)N(Cc3ccc(N4CCCC4=O)cc3)C2=O)CC1 (stereo unspecified)	0.9
CCc1c(C(=O)Nc2cc(C)cc(C)c2)[nH]c(C)c1C(C)=O	i
c1ccc(Cc2nn[nH]n2)cc1	i
COC(=O)c1ccc(CSc2nc(C)nc3c2c(=O)n(C)c(=O)n3C)o1	2.9
COc1cc(NC(=O)Cc2nn(C)c(=O)c3ccccc23)cc(OC)c1	1.5
